# ALR inh: human ALR oxidase inhibition via reduced H2O2. purified ALR, DTT oxidation, H2O2 HRP-luminol luminescence. inhibition, % (no concentration beside the values). actives 3.8% (n = 290,000). AID 485317;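 active = mean and each replicate at 75% or more; inconclusive = only one of the two met; inactive = neither met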;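 also: stock transfer was 7.5 nL into about 7.5 µL; 0% = neutral wells and 100% = wells with inactivated enzyme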
# Target sequence (P55789 whole entry, looked up): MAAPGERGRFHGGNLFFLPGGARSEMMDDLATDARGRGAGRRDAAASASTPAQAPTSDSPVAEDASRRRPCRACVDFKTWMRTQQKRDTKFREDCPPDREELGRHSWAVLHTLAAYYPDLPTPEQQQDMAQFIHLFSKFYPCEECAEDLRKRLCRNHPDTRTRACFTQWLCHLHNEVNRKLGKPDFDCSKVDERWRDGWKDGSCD
# Bfl-1 A1 inh: inhibitors of the anti-apoptotic protein A1, read as caspase activation. MEF A1-2A-BIM cells, Caspase-Glo 3/7 luminescence, 3 h; percent of clofoctol response, vehicle zero. caspase activation, % (concentration not given with the values). actives 0.066% (n = 330,000). AID 2462;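 active = over half of replicate activation scores above 10%, or exactly half above 10 with the replicate mean above 10; inconclusive = replicate mean below 10 yet half the replicates above 10; inactive = over half of replicates below 10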;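 also: wells of about 30 µL received 50 nL stock; many hits fall short of the cut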
# T cruzi repl: blocks replication of Trypanosoma cruzi | T. cruzi beta-gal in NIH3T3, luminescence, 90 h | inhibition, % (concentration not given with the values) | actives 1.4% (n = 300,000) | AID 1885;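 active = mean inhibition across valid replicates above about 55%, limit read from the data; inconclusive = mean below that limit but half or more replicates reach it; inactive = mean below it, under half of replicates reach it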;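 also: signal also drops with host cell toxicity which is not excluded here; 0% = plate median of DMSO wells and 100% = zero luminescence signal; higher percent means less beta-gal luminescence so fewer parasites; stock transfer was 50 nL into about 50 µL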
# LANA-H2B inh: blocks KSHV LANA binding to histone H2A/H2B; cell-free LANA-H2A/H2B peptide, fluorescence polarization; inhibition, % (test concentration not listed); actives 0.6% (n = 320,000); in the data active = inhibition mostly above about 10%, no sharp cut-off; inactive = mostly below about 6.7%;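 also: stock transfer was 7.5 nL into about 10 µL; 0% = median of vehicle wells and 100% = median of positive control wells; one replicate is shown; the record names a cut of 25% in any replicate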
# rRNA inh HTS: inhibitors of bacterial rRNA selective over humanized ribosomes; E. coli WT GFP vs humanized-ribosome RFP mutants, fluorescence, 24 h; hits give low values; DMSO median 0, no signal -100; GFP signal change (wild-type ribosome), % (concentration not given with the values); actives 1.6% (n = 350,000);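 active = significant combined selectivity score with lowered wild-type GFP, culture density cut under 30%, mutant RFP and density less affected; inactive = any of these conditions unmet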; also: one replicate is shown; some compounds called inactive have numbers as strong as hits
# B2AR ag: human beta-2 adrenergic receptor agonism by FAP; Am2.2-beta2AR cells, FAP receptor internalization, flow cytometry; reference of the scale not given here; actives 0.43% (n = 340,000); AID 504454; response, % (test concentration not listed);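 active = response above a set limit, near 3 SD of response in nonfluorescent compounds, cut at about 42% in these data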;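 also: stock transfer was 100 nL into about 11 µL; a reference agonist was the positive control; negative values mostly stem from fluorescent compounds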
# Target sequence (P07550 whole entry, looked up): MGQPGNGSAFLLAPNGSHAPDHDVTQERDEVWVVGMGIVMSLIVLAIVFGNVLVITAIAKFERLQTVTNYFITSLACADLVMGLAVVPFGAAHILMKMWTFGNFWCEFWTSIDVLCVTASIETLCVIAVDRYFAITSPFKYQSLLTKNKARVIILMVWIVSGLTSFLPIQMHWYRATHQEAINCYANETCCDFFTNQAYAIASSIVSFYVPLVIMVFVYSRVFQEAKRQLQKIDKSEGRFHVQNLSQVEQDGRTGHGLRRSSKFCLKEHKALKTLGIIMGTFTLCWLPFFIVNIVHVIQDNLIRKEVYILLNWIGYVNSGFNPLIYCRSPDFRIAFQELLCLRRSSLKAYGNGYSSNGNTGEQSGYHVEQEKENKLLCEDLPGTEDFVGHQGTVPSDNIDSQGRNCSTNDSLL
# Calb FLC: affects C. albicans growth with fluconazole. actives 0.57% (n = 300,000). C. albicans CaCi-2 (fluconazole-resistant clinical isolate) + fluconazole, Alamar Blue growth, 48 h. growth inhibition, % (no concentration beside the values). AID 1979;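 active = most replicates above 75%; inconclusive = exactly half above 75%; inactive = most below 75%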;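 also: all wells also contain fluconazole at 8 µg/ml as a sub-toxic cotreatment; 0% = median of DMSO wells and 100% = median of geldanamycin control wells; wells of about 8 µL received 7.5 nL stock; the first replicate is given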
# Beta apoptosis: blocks beta cell apoptosis; INS-1E cytokine-induced death, ATP luminescence, 48 h; percent of positive-control rescue, neutral wells zero; protection from apoptosis, % (no concentration beside the values); actives 0.8% (n = 300,000);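 active = all replicates at 75% or more, or half of them and the mean; inconclusive = half reach 75% but not the mean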;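 also: 0% = cytokine-treated negative control wells and 100% = positive control rescue; higher means more ATP so stronger rescue from cytokine killing; wells of about 40 µL received 100 nL stock; the first replicate is given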
# rRNA inh HTS OD600: also measured in rRNA inh HTS; calls as there; OD600 change, %; measured here: OD600 growth;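 optical density of the mix in the first replicate; 0 = DMSO median and -100 = no signal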
# rRNA inh HTS RFP: also measured in rRNA inh HTS; calls as there; RFP signal change, %; measured here: RFP humanized mutant strains;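 first replicate; 0 = DMSO median and -100 = no signal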
# * hit, by the source's call; ? = inconclusive; nt = no result given. The list is partial; rates above refer to the full screens.
SMILES,ALR inh,Bfl-1 A1 inh,T cruzi repl,LANA-H2B inh,rRNA inh HTS,rRNA inh HTS OD600,rRNA inh HTS RFP,B2AR ag,Calb FLC,Beta apoptosis
COc1cccc(-n2nc(C(=O)O)c3ccccc3c2=O)c1,-3,-0.1,5,1.2,nt,nt,nt,-3,0,12
CC(=O)Nc1cccc(C(=O)OCC(=O)NCc2ccc(F)cc2)c1,nt,-0.1,-9,2.6,11,4,-1.4,5,27,0
CCCCOc1ccc(C(=O)NCC(=O)OCC(=O)N2CCN(S(=O)(=O)c3ccc(C)cc3C)CC2)cc1,-2,1.2,-13,0.4,nt,nt,nt,-10,-7,-5
COc1ccc(/C=C/C(=O)c2ccc(O)cc2)cc1CN1CCOCC1,-15,-1.4,-12,5.9,nt,nt,nt,-1,?,-19
Cn1nccc1NS(=O)(=O)c1ccc(F)cc1,8,-0.2,-6,2.6,5,3,-0.8,2,16,-3
Cn1c(/N=C/c2ccccc2[N+](=O)[O-])nc2ccccc21,-13,-1.0,8,2.8,15,21,1.0,1,-3,-5
CCc1nnc(NC(=O)C2CCCN2S(=O)(=O)c2ccc(F)cc2)s1 (configuration not stated),3,-0.3,-14,3.2,nt,nt,nt,-5,7,-4
O=C1CCCc2oc3c(c21)CCCC3,-8,0.9,-15,2.4,11,9,0.2,0,4,-9
COC(=O)C1=C(C)N=C2SC(C)C(=O)N2C1c1cccc(F)c1 (configuration not stated),-6,0.1,-12,4.6,nt,nt,nt,6,5,4
O=C(Nc1cc(Cl)ccc1N1CCOCC1)c1cccnc1,-13,4.2,-2,-3.1,6,9,-0.8,-4,-3,-4
O=C(CN(C1CCCCC1)S(=O)(=O)c1ccc(Cl)cc1)NCc1ccncc1,5,-0.2,?,-1.3,-4,-4,-0.3,-2,21,-3
COc1ccc(-c2csc(N(CCCN(C)C)C(=O)c3ccc(C)cc3)n2)cc1,-10,?,39,-4.8,-15,-21,9.2,-6,0,-20
O=[N+]([O-])c1ccc(N2CCCC2)nc1N1CCCC1,-26,0.4,11,4.7,-43,-38,-2.2,-15,-6,nt
Cc1ccc(S(=O)(=O)N2CCC(C(=O)Nc3ccccc3N3CCCC3)CC2)cc1C,1,0.2,29,-4.9,8,7,3.9,-3,3,-4
Clc1nc(Cl)nc(NCCC2=CCCCC2)n1,38,-0.1,-10,-4.9,20,9,-0.3,1,0,-4
CCN(CC)CCCNc1oc(/C=C/c2ccccc2)nc1C#N,61,0.1,3,-4.1,-9,-8,-1.7,-1,-3,-6
CC(=O)Oc1ccc(-c2csc(Nc3cccc(C)n3)n2)cc1,-2,-1.4,43,-3.4,11,14,0.1,0,-2,nt
Oc1c(C(c2cccs2)N2CCN(c3cccc(Cl)c3)CC2)sc2ncnn12 (configuration not stated),-22,0.9,40,0.8,2,-17,-0.1,-2,2,-6
CC(=O)N1CC2(C)CN(C(C)=O)CC(C)(C1)C2O (configuration not stated),-5,1.3,-9,3.2,nt,nt,nt,-7,1,-1
Cc1ccccc1C(=O)O/N=C(\N)c1ccncc1,1,-5.8,-2,0.8,nt,nt,nt,0,-10,-12
CC(CC(=O)Nc1cc(C(F)(F)F)ccc1Cl)c1ccccc1 (configuration not stated),1,0.4,-11,-3.9,nt,nt,nt,-3,-25,3
CN(C)CCN(C(=O)/C=C/c1cccs1)c1nc2c(F)cc(F)cc2s1,nt,17*,34,nt,nt,nt,nt,-10,-19,25
CC1=NN(C(=O)c2csc(C)c2)C(O)(C(F)(F)F)C1 (configuration not stated),-19,-0.1,-13,-0.8,nt,nt,nt,3,4,0
O=C1NCCN(Cc2cccc(Oc3ccccc3)c2)C1CC(=O)N1CCCCC1 (configuration not stated),-8,0.4,20,-10,6,-9,-1.8,-3,-5,nt
CCCNC(=O)CSc1nc(COc2ccccc2)nc2ccccc12,nt,-1.0,-4,-0.2,18,15,0.0,5,-1,-6
SMILES,ALR inh,Bfl-1 A1 inh,T cruzi repl,LANA-H2B inh,rRNA inh HTS,rRNA inh HTS OD600,rRNA inh HTS RFP,B2AR ag,Calb FLC,Beta apoptosis
O=C(Nn1c(-c2ccccc2)nc2ccccc2c1=O)c1ccco1,2,0.7,-16,6.2,nt,nt,nt,-3,-5,0
CCOc1ccc(NC(=O)Cn2nnc(C(=O)NCCc3ccc(OC)c(OC)c3)c2N)cc1,nt,0.8,8,0.9,nt,nt,nt,1,46,-3
C[N+](C)(C)CCN1C(=O)CSC1=O,2,0.7,-9,1.9,13,3,-3.9,-7,-3,-6
CCOC(=O)c1ccc(CC(=O)c2oc3cc(O)ccc3c2C)o1,90*,-1.0,1,6.6,-22*,-3.4*,9.3*,5,10,nt
Cc1cc([N+](=O)[O-])nn1CC(=O)N/N=C/c1ccc(O)cc1O,nt,0.1,0,-1.5,-3,-12,-5.2,1,-2,47
CCOC(=O)[C@H]1[C@H]2COc3ccccc3[C@@H]2N2C(=O)c3cc(F)c(F)cc3NC(=O)[C@@]12C,nt,1.7,nt,2.7,8,-4,-4.1,1,nt,1
COc1cc(C(=O)OCC(=O)NC(=O)NCc2ccccc2)ccc1OC(F)F,-19,-0.1,nt,1.8,nt,nt,nt,3,nt,-7
Cc1noc(/C=C/c2cccnc2)c1[N+](=O)[O-],1,-2.3,59*,3.9,7,7,2.9,17,21,1
CCNc1nc(NC(C)(C)C)nc(N2CCCCC2)n1,-3,-0.5,49,-2.4,-33,-37,-7.0,15,42,41
COc1ccc(/C=N/NC(=O)c2cc(Br)ccc2O)cc1Cn1cc(Cl)cn1,-3,-0.3,-4,-1.1,6,11,-0.1,1,1,-2
Cc1nnc(NC(=O)C2CCN(S(=O)(=O)c3cc([N+](=O)[O-])ccc3Cl)CC2)o1,nt,1.1,nt,1.3,-7,5,-4.6,0,nt,0
CC(C)Cn1c(=O)c2c(nc3n2CCS3)n(C)c1=O,nt,0.1,3,4.4,-2,-8,-1.3,0,4,1
COc1cccc(C(=O)Nc2cccc3ccccc23)c1OC,-24,0.0,-12,3.6,-20,-24,-4.5,-9,5,4
COc1cccc(C(=O)Nc2cccc(C(C)=O)c2)c1,-6,-5.7,-7,2.2,3,10,6.2,2,23,-4
CCOc1cc(Br)c(C(=O)O)cc1OCC,9,1.4,-6,1.3,nt,nt,nt,3,8,-2
Cc1ccc(NC(=O)CSc2nccn2C)cc1S(=O)(=O)N1CCOCC1,-15,-0.4,14,5.3,nt,nt,nt,-4,-1,nt
Cc1ccc(-n2cc(CN3CCC(O)(c4ccccn4)CC3)c(-c3ccc(F)cc3)n2)cc1,-2,?,55*,3.9,-43,-67,-1.7,11,1,-14
Cc1cc(C(F)F)n2nc(C(=O)Nc3cccnc3Cl)nc2n1,-4,0.7,-14,-0.1,nt,nt,nt,-11,-1,-6
CC(C)Cc1cc(C(=O)NCc2cccs2)no1,0,-1.1,-7,-0.1,1,-6,-2.0,6,-2,-2
Cc1ccc(C(=O)c2coc3cc([N+](=O)[O-])c(O)c([N+](=O)[O-])c23)cc1,-20,-0.8,-5,-0.4,-48*,-8.6*,-7.7*,5,69,4
COc1ccccc1C(=O)N(Cc1ccc(C)o1)C1CCS(=O)(=O)C1 (configuration not stated),3,-0.4,-16,4.5,8,13,-1.6,-3,-1,-8
COc1ccc(NC(=O)CCn2cccc2)cc1,6,0.1,4,-4.3,nt,nt,nt,9,-12,-5
CCN(CC)c1ccc(/C=N/n2nnnc2N)c(O)c1,25,-0.4,25,-0.1,nt,nt,nt,11,-2,4
O=[N+]([O-])c1ccc(N2CCOCC2)cc1NC(c1ccccc1)c1ccccc1,-6,-1.8,18,-1.9,nt,nt,nt,6,-4,21
COc1ccc(OC)c(NC(=O)Cc2c(C(=O)O)n(C)c3ccccc23)c1,-61,-2.5,8,-2.3,-8,-9,0.5,1,0,-4
SMILES,ALR inh,Bfl-1 A1 inh,T cruzi repl,LANA-H2B inh,rRNA inh HTS,rRNA inh HTS OD600,rRNA inh HTS RFP,B2AR ag,Calb FLC,Beta apoptosis
CO/N=C/NC(=O)Cc1cn(-c2ncc(C(F)(F)F)cc2Cl)c2ccccc12,-3,-0.6,11,2.2,nt,nt,nt,-13,-6,2
Cc1ccc2c(c1)cc1c(=O)n(CC(=O)NCCN3CCCC3)nc(C)n12,-4,-0.1,24,-1.1,nt,nt,nt,-3,0,-7
CC(CC(=O)Nc1ccc(S(=O)(=O)N2CCOCC2)cc1)c1ccccc1 (configuration not stated),0,-0.9,-11,3.4,0,-2,2.0,2,1,0
CC(=O)Nc1ccc2c(c1)n(C)c(=O)n2C,-4,-0.2,1,0.1,nt,nt,nt,4,13,-3
Cc1ccc(NC(=O)Cn2nc(C)c3ccccc3c2=O)cc1,7,0.4,nt,0.8,nt,nt,nt,-3,-5,2
CCOC(=O)c1c(-c2cccc([N+](=O)[O-])c2)csc1NC(=O)CCCOc1ccccc1,-39,0.9,20,1.1,nt,nt,nt,-2,8,-4
O=S(=O)(c1ccc2c(c1)OCCO2)N1CCN(Cc2ccccc2)CC1,nt,-0.1,18,-1.2,nt,nt,nt,4,-5,-3
Cc1ccc(-c2c[n+](Cc3ccc(Cl)c(Cl)c3)c3n2CCC3)cc1,-23,-0.1,49,0.8,nt,nt,nt,0,-8,89*
N#Cc1ccccc1OCC(=O)NC1CCCCC1,2,-1.4,nt,-0.4,1,-2,6.9,3,nt,-4
NC(=O)c1cc(C(=O)c2ccc(Cl)cc2)c[nH]1,-1,-0.6,-24,2.9,-23*,-9.7*,-8.9*,3,1,-4
CCCCC(=O)Nc1ccc2oc(-c3cccnc3)nc2c1,-6,-0.9,nt,-0.2,nt,nt,nt,-14,-13,-4
C=CCNC(=O)COC(=O)c1nc2nccc(C)n2n1,-4,1.7,-6,-0.1,11,-7,2.9,-17,-1,nt
S=C(NC1CCCC1)N1CCN(C/C=C/c2ccccc2)CC1,-6,0.1,-6,-1.0,0,1,-2.2,-13,-29,3
O=C(O)c1ccc(COc2ccc3c(c2)CCC3)cc1,37,-5.3,-6,-9.8,-15,-13,-2.0,5,11,-7
Cc1cccc(C(=O)OC(C)CN2CCOCC2)c1 (configuration not stated),nt,1.6,2,0.4,6,1,1.3,1,-8,-6
Cc1cc(C(=O)NNC(=S)NCC(C)C)cs1,9,0.7,-19,5.5,7,9,-3.3,11,-3,-7
COc1ccc(C(=O)OCC(=O)Nc2ccc(OC(F)F)cc2)c(OC)c1,-12,0.4,7,-1.0,nt,nt,nt,3,13,-4
COc1ccc(NC(=O)N2CCc3ccccc3C2)c(OC)c1,-9,-0.8,-1,0.6,-1,2,0.5,10,-1,-4
Cc1cc(/C=N/Nc2ncnc(N)c2[N+](=O)[O-])c(C)n1-c1ccccc1,27,-13,5,-4.4,-6,-8,4.3,11,-3,16
CCn1c(CSc2nnc(-c3cccnc3)n2-c2ccccc2C)nc2cc(C(=O)O)ccc21,-69,-0.1,nt,18*,nt,nt,nt,nt,nt,-6
CCC/C(=C1/c2ccccc2C(=O)N1c1ccccc1)c1ccc2c(c1)OCO2,-5,-0.3,nt,2.0,-19,-24,-14,-1,nt,2
CCCCNC(=O)Cc1cc(=O)[nH]c(=O)[nH]1,nt,-0.6,-9,-8.5,2,15,-10,9,-3,1
